D2 ag – Beta-Arrestin HTS for Positive Allosteric Modulators of the Human D2 Dopamine Receptor: Agonists. D(2) dopamine receptor (Homo sapiens), P14416. DiscoveRx PathHunter D2 beta-arrestin, luminescence, 90 min; 100% = 57 uM dopamine signal. activation, % (no concentration beside the values). actives 0.084% (n = 360,000). AID 624465, 2012; in the data active = activation above about 40%; inconclusive = about 15% to 40%; inactive = below about 15%; further: compound concentration not given in the record; the text of the record calls up to 30% inactive
Target sequence (P14416 whole entry, looked up): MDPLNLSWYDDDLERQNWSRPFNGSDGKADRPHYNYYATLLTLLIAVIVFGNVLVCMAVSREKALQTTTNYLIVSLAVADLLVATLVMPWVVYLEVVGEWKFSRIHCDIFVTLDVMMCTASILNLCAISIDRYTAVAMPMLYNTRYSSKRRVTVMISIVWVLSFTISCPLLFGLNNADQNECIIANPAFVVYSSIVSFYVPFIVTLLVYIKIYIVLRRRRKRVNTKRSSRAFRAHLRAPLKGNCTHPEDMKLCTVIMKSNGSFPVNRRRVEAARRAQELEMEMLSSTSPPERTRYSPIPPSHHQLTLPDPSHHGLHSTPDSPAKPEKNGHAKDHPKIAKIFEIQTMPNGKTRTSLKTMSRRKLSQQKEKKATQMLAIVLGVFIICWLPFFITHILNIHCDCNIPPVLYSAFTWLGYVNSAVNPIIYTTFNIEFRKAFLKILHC
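DiscoveRx PathHunter D2 beta-arrestin cells (2,100/well) attached overnight, then compound-stimulated 90 min at 37 C in HBSS/10 mM HEPES/0.1% Tween-20 buffer; beta-galactosidase complementation read by luminescence after 1 h at ambient temperature. Dopamine 57 uM final (EC100) as control.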
D2 PAM – Beta-Arrestin HTS for Positive Allosteric Modulators of the Human D2 Dopamine Receptor: Potentiators; DiscoveRx D2 beta-arrestin cells, luminescence, 90 min; 100% = 57 uM dopamine signal; potentiation, % (test concentration not listed); AID 624464, 2012; actives 0.23% (n = 360,000); D(2) dopamine receptor (Homo sapiens), P14416; active = potentiation of 50% or more; inconclusive = 30% to 50%; inactive = 30% or less;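 further: compound concentration not given in the record; tested on top of an EC20 dose of dopamine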
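D2 cells co-treated with compound plus 50 nM dopamine (EC20) for 90 min at 37 deg C to detect potentiation. Beta-arrestin recruitment was read as enzyme-fragment luminescence after 1 h at ambient temperature. Full response was set by 57 uM dopamine.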
CtBP-E1A inh – qHTS Assay for Inhibitors of the CtBP/E1A Interaction. CtBP / adenovirus E1A interaction (AlphaScreen). activity change, % (concentration not given with the values). AlphaScreen GST-E1A/His-CtBP binding, 1536-well; active compounds read low; control for the full effect not named in the record. actives 0.49% (n = 340,000); in the data active means activity change below about -65%; inconclusive means about -30% to -65%; inactive means above about -30%; further: on the % scale 0 is the no-effect control and ±100 the full control effect
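Steps: dispense buffer (Tris pH 8.0, NaCl 300 mM, TCEP 1 mM, BSA, Tween 20); add 5X protein mix (GST-E1A, His-CtBP, 125 nM each); pin 23 nL compound; 2 h at 37 °C, dark; add 5X beads (50 ug/mL); 1 h; read.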
gsp agonist – qHTS for Agonist of gsp, the Etiologic Mutation Responsible for Fibrous Dysplasia/McCune-Albright Syndrome: qHTS; gsp mutant cells, cAMP HTRF, 30 min; control for the full effect not named in the record; actives 0.13% (n = 340,000); Potency, µM (top dose mostly 76.9 µM), for the others: at the top dose activation (cAMP increase), actives largely listed as activators; active = well fitted activation curve with a large enough effect; inconclusive = small, poorly fitted or top-dose-only effect, or another doubt; inactive = no such curve, though single readings can be large or run the other way; cell line not stated here;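 further: phosphodiesterase inhibitor Ro 20-1724 added with compounds to block cAMP breakdown; potency means the concentration at half of the fitted maximal effect; nearly all actives have a fitted effect of over 60% in size; about a fifth of the inactives were tested at one dose only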
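Cells in DMEM/10% FBS with G418 were pretreated with compounds in DMSO plus […] (300 uM stock) for 30 min at 37C. cAMP was measured by HTRF (cAMP-d2 plus anti-cAMP antibody-K) after 30 min at room temperature.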
Six1-Eya2 blk – qHTS Assay for Inhibitors of the Six1/Eya2 Interaction. actives 0.56% (n = 360,000). AlphaScreen GST-Six1/His-Eya2 binding, biochemical; active compounds read low; control for the full effect not named in the record. activity change, % (no concentration beside the values). AID 651725, 2012; in the data active = activity change below about -65%; inconclusive = about -30% to -65%; inactive = above about -30%; further: on the % scale 0 is the no-effect control and ±100 the full control effect
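AlphaScreen luminescence read after one hour at 37 °C in darkness. Pin-transferred compounds met GST-Six1 and His-Eya2 protein (5X stock 250 nM/500 nM) plus glutathione donor and Ni-chelate acceptor beads (5X, 50 ug/mL).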
gsp antagonist – qHTS for Antagonists of gsp, the Etiologic Mutation Responsible for Fibrous Dysplasia/McCune-Albright Syndrome: qHTS. gsp-mutant cells, cAMP HTRF, 30 min; control for the full effect not named in the record. Potency, µM (series often up to 76.9 µM), for the others: top-dose activity change, negative = inhibition, actives largely listed as inhibitors. actives 0.4% (n = 340,000); active = falling curve of any shape with a large fitted effect; inconclusive = falling curve, mostly with a smaller effect; inactive = flat or rising curve; cell line not stated here;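 further: intracellular cAMP measured with PDE inhibitor Ro 20-1724 present during compound exposure; potency means the concentration at half of the fitted maximal effect; on the % scale 0 is the no-effect control and ±100 the full control effect; nearly all actives have a fitted effect of over 65% in size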
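Measurement of cellular cAMP by homogeneous time-resolved fluorescence following a 30 min compound exposure at 37C. The PDE inhibitor […] was present throughout; the assay buffer was DPBS with 0.05% BSA and 0.005% Tween 20.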
Starred values were filed as active, the others as inactive; u = inconclusive; x = not tested or not shown; [ ] = another dose, or the depositor's remark.

Every second line gives: gsp antagonist	Six1-Eya2 blk	CtBP-E1A inh	D2 ag	D2 PAM	gsp agonist
Cc1ccc(OCc2cc(C(=O)NCc3cnn(-c4cccc(F)c4)c3)no2)cn1
 : 2%	2	x	6.3	4	-2%
COc1ccc(C(=S)N2CCOCC2)cc1OC(=O)c1ccc(C)cc1
 : -3%	-12	-19	4.0	-5	19%
COc1ccc(CN(C)C(=O)c2cc(S(=O)(=O)N3CCOCC3)ccc2N2CCCC2)cc1
 : 2%	-3	-12	-3.3	8	-8%[15.4 µM]
O=C(NCc1ccccn1)c1cc(-c2ccccc2Cl)nc2ccccc12
 : 9%	-8	-4	-1.4	-18	u
CC(CN1CCN(Cc2ccccc2)CC1)OC(=O)c1ccco1 (stereo not drawn)
 : 9%	11	-8	-5.6	-24	17%
c1ccc2oc(-c3ccc4nc[nH]c4c3)nc2c1
 : 1%	-21	-6	4.3	-8	15%
CC1(C)Oc2ccc3ccc(=O)oc3c2/C(=C/Nc2ccccn2)C1=O
 : -14%	-1	4	-2.5	2	9%
CC1(C(=O)NS(=O)(=O)c2cccc(F)c2)CCN1C(=O)Cc1ccc(Cl)cc1Cl (stereo not drawn)
 : x	0	1	-2.6	1	x
COc1ccc(CCNC(=O)c2cc(=O)[nH]c3ccccc23)cc1
 : -36%	2	0	-1.2	-6	27%[15.4 µM]
CN(C)C=Nc1nonc1-c1ccccc1
 : -8%	-3	x	-3.3	-18	-37%[inhibitor]
CCN(Cc1ccccc1)C(=O)C1CCN(c2ncnc3c2nc2n3CCCCC2)CC1
 : -23%	-1	-8	1.5	-5	11%
COc1ccc2[nH]c(C)c(CCNC(=S)Nc3cccc(C)c3)c2c1
 : -3%	-5	-20	-2.2	-2	-24%
CC(C)OC(=O)CSc1nc(N)c(C#N)c(-c2ccco2)c1C#N
 : 4%	-18	-19	-0.6	u	u
COC(=O)CSc1snnc1-c1ccc(Cl)c(Cl)c1
 : -33%	39	21	1.1	-6	9%
O=C(O)/C=C/c1ccc(S(=O)(=O)Nc2ccc(C(=O)NCC(=O)O)cc2)cc1
 : 17%	-20	-4	-4.9	-4	-12%[15.4 µM]
O=C1C(=O)N(CCCO)C(c2ccccc2)/C1=C(\O)c1ccc(Br)cc1 (stereo not drawn)
 : -1%	-1	10	-0.8	2	u
O=C(N/N=C/c1sc(=O)[nH]c1-[n+]1ccc2ccccc2c1)c1ccccc1[O-]
 : -15%	u	-75*	-4.6	-16	2%
CN(CC(=O)Nc1ccccc1Cl)C(=O)COC(=O)c1ccc(-c2ccc(O)cc2)cc1
 : 12%	2	-4	7.0	-4	3%
COc1ccc(CCNC(=O)c2ccco2)cc1
 : 7%[15.4 µM]	-1	-1	-3.0	-13	-10%
O=C(CCN1C(=O)C2C3C=CC(C3)C2C1=O)N1CCN(c2ccccc2F)CC1 (stereo not drawn)
 : -5%	33	0	-1.4	-10	-14%

Structures above that bear a hit mark in CtBP-E1A inh:
Every second line gives: gsp antagonist	Six1-Eya2 blk	CtBP-E1A inh	D2 ag	D2 PAM	gsp agonist
O=C(N/N=C/c1sc(=O)[nH]c1-[n+]1ccc2ccccc2c1)c1ccccc1[O-]
 : -15%	u	-75*	-4.6	-16	2%

Carrying on.
Every second line gives: gsp antagonist	Six1-Eya2 blk	CtBP-E1A inh	D2 ag	D2 PAM	gsp agonist
NC(=O)c1sc2nc(-c3ccccc3)c3c(c2c1N)CCCC3
 : -8%	-30	-29	-1.4	-6	u
C/C(CC(=O)Nc1cccc(Cl)c1Cl)=N\NC(=O)c1ccccc1N
 : -16%	-4	-5	2.0	-6	8%[15.4 µM]
CN(C)S(=O)(=O)c1ccc(NC(=O)C2CCCN(C(=O)c3ccc(Cl)cc3)C2)cc1 (stereo not drawn)
 : 10%	14	2	1.9	7	-11%
O=C(Nc1cccc(S(=O)(=O)N2CCCCC2)c1)C1CCN(C(=O)c2ccc(Cl)cc2)CC1
 : u	-9	-1	-2.9	-24	-10%
CN1CCN(C(=O)CSc2nc(-c3cccs3)ccc2C#N)CC1
 : -15%	-11	-5	1.5	-5	1%
Cc1ccc(SCC(=O)OCn2nnc3ccccc3c2=O)cc1C
 : -2%	2	6	-2.7	-20	0%
CCCCOP(=O)(OCCCC)C(O)c1ccc(N(C)C)cc1 (stereo not drawn)
 : 1%	-5	-8	-0.2	-7	-22%[15.4 µM]
CCOC(=O)[C@@H]1[C@H]2COc3cc(OC)ccc3[C@@H]2N2C(=O)N(c3ccc(C(F)(F)F)cc3)C(=O)[C@@]12C
 : 1%	1	-4	-4.2	-11	x
CC(C)C(OC(=O)c1cc2occc2n1C)C(=O)NCc1ccc2c(c1)OCO2 (stereo not drawn)
 : -16%	-10	-7	-1.5	-11	3%
CC(C)c1ccc(N(CC(=O)NCc2ccc(F)cc2)C(=O)c2snc(C(N)=O)c2N)cc1
 : 4%	9	-4	-3.7	-6	u
C/C(=N\Nc1nc2ccccc2[nH]1)c1cc2ccccc2o1
 : -19%	-6	-18	-6.0	-11	2%[15.4 µM]
CC(=O)N1CCN(Cc2cc(=O)oc3ccccc23)CC1
 : x	9	10	-3.4	-8	x
O=C(CCc1nnc(C2(c3ccc(Cl)cc3)CCC2)o1)N1CCCC(O)C1 (stereo not drawn)
 : 2%	7	2	-0.9	6	u
C/C(CC(=O)Nc1ccc(Cl)cc1Cl)=N\NC(=O)c1ccco1
 : -5%	-7	-4	-6.0	2	-12%
O=C(Cc1cccc(NC(=O)C2CCCN(C(=O)CCc3ccccc3)C2)c1)Nc1ccc(C(=O)N2CCCCC2)cc1 (stereo not drawn)
 : -13%	2	-1	0.1	-3	x
C#CCCc1cocc1/C=[N+](\[O-])c1ccc(C(=O)OCC)cc1
 : 6%	3	-26	1.3	0	0%
CC1=NN=C(c2ccccc2)C(c2c[nH]c3ccccc23)N1O (stereo not drawn)
 : -5%	-4	-3	1.4	-7	7%
O=C(NCC1CC1)c1ccc2nc([C@@H]3O[C@H](CO)[C@H](O)[C@H](O)[C@H]3O)[nH]c2c1
 : x	4	3	-2.4	-4	x
COc1ccc(C(C(=O)NC2CCCCC2)N(C(=O)c2snc(C(N)=O)c2N)c2ccc(OC)cc2OC)cc1 (stereo not drawn)
 : -2%	2	-2	0.9	-3	-51%[inhibitor]
O=S(=O)(c1ccc(Cl)cc1)N1CCC(n2cccc2)CC1
 : 8%	-14	-15	3.2	-10	-4%[15.4 µM]

Going on with the list.
Every second line gives: gsp antagonist	Six1-Eya2 blk	CtBP-E1A inh	D2 ag	D2 PAM	gsp agonist
CC1CN(C(=O)N2c3ccccc3Sc3ccccc32)C(C)CC1=O (stereo not drawn)
 : -29%	-6	-6	-0.6	1	3%
Cc1[nH]c2ccc(S(N)(=O)=O)cc2c1C
 : 13%	1	-15	-1.6	-10	0%
Cc1ccc(Oc2nc3ccccn3c(=O)c2/C=C(\C#N)C(=O)Nc2c(C)n(C)n(-c3ccccc3)c2=O)cc1
 : -1%	-4	2	3.1	-2	-1%
O=C(OCC(=O)N(CCc1ccccc1)Cc1ccccc1)c1cccc(O)c1
 : -17%	-3	-3	-5.3	-20	8%
O=C(CCNC(=O)c1ccccc1Cl)Nc1cccc(C(F)(F)F)c1
 : 4%	-1	x	-1.9	-2	3%
CN(CC(=O)Nc1ccc(Cl)c(C(F)(F)F)c1)C(=O)Cc1c[nH]c2ccccc12
 : -9%	-5	-2	-1.7	-4	2%[15.4 µM]
O=C(CSc1ccc(-c2nc3ccccc3[nH]2)cn1)Nc1ccc2c(c1)OCCO2
 : 15%	-5	1	3.0	4	-20%
c1cc2c(cnc3cscc32)s1
 : 10%	-2	x	-5.3	-5	u
Nc1ccccc1Nc1c(F)c(F)nc(F)c1Cl
 : -5%	-21	-17	1.8	-2	-10%
Cn1c2ccccc2c2cnn(CC(=O)Nc3ccc(F)cc3F)c(=O)c21
 : -4%	1	11	-3.1	-5	23%
Cc1ccnc(NC(=O)C2CCN(S(=O)(=O)c3cccc4nsnc34)CC2)c1
 : -13%	-2	-1	-1.5	4	3%
CCC(Cc1ccccc1)NC(=O)/C=C/c1ccco1 (stereo not drawn)
 : 0%	-16	2	2.5	-5	9%[15.4 µM]
Cc1ccc(N2C(=O)CC(C3CCCO3)C2=O)cc1 (stereo not drawn)
 : 8%	5	-1	1.4	0	7%
COc1cc(C(=O)N/C(=C\c2cn(C)c3ccccc23)C(=O)N2CCOCC2)cc(OC)c1OC
 : -7%	1	-11	5.1	-11	5%
COCCCNC(=O)CSC1=Nc2ccccc2C2=NC(Cc3c[nH]c4ccccc34)C(=O)N12 (stereo not drawn)
 : 5%	1	3	0.6	-1	15%[15.4 µM]
COc1ccccc1N1CCN(C(=O)c2ccc3[nH]c4c(c3c2)CC(C)CC4)CC1 (stereo not drawn)
 : u	u	-24	-4.8	-7	-2%[15.4 µM]
CN1/C(=C\C(=O)CSc2nnc(N)s2)C(C)(C)c2ccccc21
 : -2%	1	1	-2.9	-10	-6%
CCN(CC)CCNC(=O)c1ccc(NC(=O)c2ccccc2-c2ccc(C(F)(F)F)cc2)cc1
 : 12%	12	-3	-1.7	-14	0%
CCN(CC)CCNC(=O)c1ccc(NC(=O)C2CCN(S(=O)(=O)c3ccc4c(c3)OCCO4)CC2)cc1
 : 0%	4	2	-2.6	-19	23%
CCn1ncc(C2=NOC(C(=O)Nc3cnn(C45CC6CC(CC(C6)C4)C5)c3)C2)c1C (stereo not drawn)
 : -22%	14	36	-5.6	-12	u

More records.
Every second line gives: gsp antagonist	Six1-Eya2 blk	CtBP-E1A inh	D2 ag	D2 PAM	gsp agonist
CC(=O)Nc1cnc(-c2ccccc2O)cn1
 : x	2	0	-2.5	-11	x
CCOC(=O)c1c(CC(C)C)csc1NC(=O)c1ccccc1C(=O)O
 : -7%	-1	4	-1.5	1	u
COc1cc(N/C=C2\CC(=O)NC(C)=C2C#N)cc(OC)c1OC
 : -4%	-5	-4	-3.9	-4	-22%[15.4 µM]
COC(=O)C1CCN(S(=O)(=O)c2ccc(OC)cc2)CC1
 : 2%	2	2	2.2	-4	-17%
COCCN(CCOC)C(=O)c1cc2c(=O)n3ccccc3nc2s1
 : 45%[activator]	-1	-11	0.9	6	4µM*
COc1ccc(N2CCCCn3c2nc2c3c(=O)n(C)c(=O)n2C)cc1
 : 9%	-3	-7	0.4	-10	-3%
COc1ccc(CCC(=O)OCC(=O)Nc2ccc(C)c(S(=O)(=O)N(C)C)c2)cc1
 : 2%	-4	-2	0.1	9	u
COc1ccc(CNC(=O)CCc2nc3cc(S(=O)(=O)N(C)C)ccc3n2C)cc1OC
 : 9%	1	7	-0.1	4	4%[15.4 µM]

Screening results deposited in PubChem BioAssay by National Center for Advancing Translational Sciences (NCATS).
